RanGTP-Impb inh = inhibitors of RanGTP-importin-beta interaction, primary screen, biochemical, FRET, CFP-Ran, YFP-importin-beta, homogeneous | Ran GTPase (GTP-bound) - importin-beta complex | cell-free CFP-Ran/YFP-importin-beta FRET ratio | inhibition, % (concentration not given with the values) | 300,000 tested, 1.1% active;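 active = most replicates above 15%; inconclusive = exactly half above 15%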;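 also: 0% = DMSO wells and 100% = Ran loaded with GDP instead of GTP; wells of about 40 µL received 100 nL stock; the first replicate is given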
UCH37 inh = inhibitors of human UCH37 deubiquitinase, primary screen, biochemical, Ub-AMC cleavage, fluorescence. purified proteasome/UCH37. inhibition, % (no concentration beside the values). 330,000 tested, 0.33% active. AID 588478, 2011;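 active = mean of two replicates above 20%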;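 also: 0% = compound-free wells with enzyme and 100% = wells lacking proteasome; stock transfer was 100 nL into about 20 µL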
Target sequence (Q9Y5K5 whole entry, looked up): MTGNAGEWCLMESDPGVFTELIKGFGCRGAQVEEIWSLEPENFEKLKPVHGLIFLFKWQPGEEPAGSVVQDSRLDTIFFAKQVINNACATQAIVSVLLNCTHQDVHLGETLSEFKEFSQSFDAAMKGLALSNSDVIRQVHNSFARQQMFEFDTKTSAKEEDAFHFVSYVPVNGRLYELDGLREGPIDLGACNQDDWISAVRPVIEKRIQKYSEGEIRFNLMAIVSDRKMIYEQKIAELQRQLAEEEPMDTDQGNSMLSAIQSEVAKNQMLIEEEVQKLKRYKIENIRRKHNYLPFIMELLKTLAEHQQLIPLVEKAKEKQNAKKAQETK
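system = Proteasome-associated human UCH37 deubiquitinase | amount = 0.15 nM proteasome as dispensed | medium = pH 7.4 Tris-HCl (50 mM) with ovalbumin, ATP-MgCl2, DTT | incubation = 30 min preincubation with enzyme, 25 min cleavage at room temperature | detection = AMC fluorescence 355/460 nm | read-out basis = percent inhibition | controls = no-proteasome and no-compound wells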
MLL AF4-AF9 inh = inhibitors of AF4 peptide binding to AF9, primary screen, biochemical, AlphaScreen, biotin-AF4 peptide, FLAG-AF9, single point; Protein AF-9 (Homo sapiens), P42568; inhibition, % at 10 µM; 350,000 tested, 0.47% active; AID 651704, 2012;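 active = every replicate reaching a set inhibition limit, whatever the replicate mean, cut at about 25% in these data; inconclusive = mean inhibition reaches that limit but some replicates miss it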;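 also: 0% = plate neutral control median and 100% = total signal loss; the record names both 10 and 1 µM as test concentration; the first replicate is given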
Target sequence (P42568 whole entry, looked up): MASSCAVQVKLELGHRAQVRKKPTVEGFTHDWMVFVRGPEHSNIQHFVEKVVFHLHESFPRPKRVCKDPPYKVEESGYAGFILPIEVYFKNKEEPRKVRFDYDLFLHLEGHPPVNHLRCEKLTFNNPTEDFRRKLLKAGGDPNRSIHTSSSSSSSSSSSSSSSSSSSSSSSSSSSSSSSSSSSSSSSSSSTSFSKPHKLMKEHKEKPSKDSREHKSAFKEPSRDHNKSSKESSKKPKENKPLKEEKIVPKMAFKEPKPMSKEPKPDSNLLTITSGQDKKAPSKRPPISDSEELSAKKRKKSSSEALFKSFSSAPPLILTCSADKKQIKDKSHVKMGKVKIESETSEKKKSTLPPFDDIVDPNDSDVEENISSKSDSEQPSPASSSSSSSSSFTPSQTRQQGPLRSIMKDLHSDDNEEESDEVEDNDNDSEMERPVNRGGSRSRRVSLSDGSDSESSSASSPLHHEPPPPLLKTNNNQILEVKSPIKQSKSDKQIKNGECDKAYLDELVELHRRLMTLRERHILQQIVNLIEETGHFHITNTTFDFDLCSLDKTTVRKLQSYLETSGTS
HNF4A DNA FP = change in binding of human HNF4A to DNA, primary screen, biochemical, fluorescence polarization, FITC-DNA; Hepatocyte nuclear factor 4-alpha (Homo sapiens), P41235; 1 h; activity change, % at 10 µM; 360,000 tested, 0.3% active; in the data active = activity change above about 30%, passing the limit was not always enough;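 also: controls were the assay level and a saturating level of protein; the project sought stronger binding though the title names inhibitors; some compounds called inactive have numbers as strong as hits; positive values seem to mean higher polarization but the record does not say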
FGF22 binding = binders of human FGF22 protein, primary screen, FGF22 synaptogenesis inhibitor project, biophysical, thermal shift, single point. Fibroblast growth factor 22 (Homo sapiens), Q9HCT0. recombinant FGF22 thermal shift, SYPRO orange fluorescence; percent of sucrose octasulfate shift, DMSO zero. calls only at 9.99 µM. 340,000 tested, 1.5% active. AID 651658, 2012;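 active = melting point raised past a set limit in the mean and every replicate; inconclusive = no clear call; three in four hits are not shown here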
Vif TR-FRET = inhibitors of Vif binding to APOBEC3G peptide, primary screen, biochemical, TR-FRET, GST-Vif 1-94, biotin-A3G peptide, dose response retest (AID 1117319); Virion infectivity factor (Human immunodeficiency virus type 1 group M subtype B (isolate …; TR-FRET GST-Vif / biotin-A3G peptide binding; higher % means a stronger effect; test concentration not given here; strong numbers were not always called active; inhibition, %, or IC50 in µM where a hit was titrated; 260,000 tested, 0.57% active;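 active = above the screen mean plus three standard deviations and confirmed in dose response; inconclusive = results disagree or hit not tested in dose response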;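 also: Vif residues 1-94 fused to GST binding biotinylated APOBEC3G peptide 110-148; 0% = full assay without inhibitor and 100% = GST in place of GST-Vif; retest series ran down from 100 µM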
E coli growth = E. coli growth inhibition, primary screen, OD600; Escherichia coli growth, 23 h; active compounds read low; OD600 absorbance (test concentration not listed); 330,000 tested, 0.21% active;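 active = OD600 absorbance below the run mean of sample wells minus 3.6 SD, in any replicate, cut at about 0.56 in these data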;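 also: stock transfer was 300 nL into about 60 µL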
* marks the source's active call; other numbers are inactive results; i = inactive; ? = inconclusive; nt = not tested or not shown; & = joins results of further samples. A portion of the library; the hit share may differ from the screen's.

compound	RanGTP-Impb inh	UCH37 inh	MLL AF4-AF9 inh	HNF4A DNA FP	FGF22 binding	Vif TR-FRET	E coli growth
Cc1cccc(-c2nc3ccccc3c(=O)n2NC(=O)c2ccc([N+](=O)[O-])c(C)c2)c1	6.2	2.0	-1.4	0.0	i	nt	0.72
NS(=O)(=O)c1cccnc1Nc1c(Cl)cccc1Cl	9.6	5.6	nt	1.0	nt	1%	0.74
O=C(c1ccc(N2CCCCC2)c([N+](=O)[O-])c1)N1CCN(S(=O)(=O)c2ccccc2)CC1	4.1	1.8	7.5	2.4	i	2%	0.68
Cc1nn(Cc2ccc(Br)cc2)c(C)c1NC(=O)c1nn(C)cc1Cl	4.0	1.6	nt	4.0	nt	0%	0.68
O=C(O)c1ccccc1Nc1ccnc(Cl)n1	-1.0	1.9	nt	12	i	8%	0.63
CCOC(=O)N1N=C(C)CC1(O)c1ccccc1 (stereo not drawn)	3.4	4.5	nt	1.4	nt	nt	0.7
O=C(COc1ccc(S(=O)(=O)NC2CCCCC2)cc1)NCc1cccnc1	1.7	1.8	0.5	-1.1	i	-3%	0.67
O=C(OCn1nnc2ccccc2c1=O)c1cccs1	2.9	2.5	-2.7	-5.1	i	-2%	0.8
COc1cccc(NC(=O)CCS(=O)(=O)c2ccc3c(c2)oc(=O)n3C)c1	3.5	0.8	-7.5	-0.1	i	nt	0.66
CC(=O)c1ccc(OCC(=O)Nc2ccc3nc(C)sc3c2)cc1	-1.0	1.7	1.3	2.4	i	-1%	0.68
Nc1ccc(C(=O)N/N=C\C=C\c2ccc([N+](=O)[O-])cc2)cc1	-2.4	nt	-1.7	-0.8	i	-7%	nt
CCOc1cc([N+](=O)[O-])cc2c1C(=O)Nc1ccccc1O2	-8.2	0.1	nt	14	nt	1%	0.69
COc1ccccc1C(=O)NNC(=O)c1ccccc1Br	-5.0	2.2	2.5	-0.1	i	nt	0.69
Cc1c(C(=O)Nc2ccc(C(=O)O)cc2)cnn1C	0.9	6.9	nt	1.4	nt	-1%	0.71
COc1cc(-c2nc(CN(C)C(C)c3ccncn3)c(C)o2)ccc1F (stereo not drawn)	4.1	-2.7	-1.9	0.0	nt	-10%	0.67
Cc1ccc(S(=O)(=O)Nc2cc(C)cn(Cc3ccccc3)c2=O)cc1	4.3	-0.4	1.8	18	i	nt	0.71
Cc1ccccc1NC(=O)C(C)OC(=O)CNS(=O)(=O)c1ccc(C#N)cc1 (stereo not drawn)	-1.4	1.0	6.4	-3.0	i	-2%	0.7
CC(=O)NC1C(Oc2ccccc2C)OC(CO)C(O)C1O (stereo not drawn)	7.7	0.6	0.9	0.0	i	0%	0.7
Cc1ccc(OCC(=O)Nc2ccc(NC(=O)c3ccccc3)cc2)cc1C	-0.7	-0.6	-9.0	-3.0	i	nt	0.72
CN(C(=O)CSc1nc2ccccc2c(=O)n1C)C1CCS(=O)(=O)C1 (stereo not drawn)	nt	-0.6	-5.5	-2.8	i	2%	0.66
O=C1COc2ccc(C(=O)CCl)cc2N1	3.5	nt	2.0	0.0	nt	20%	nt
CC(=O)C1=C(O)C(=O)N(Cc2ccccc2)C1c1ccc(N(C)C)cc1 (stereo not drawn)	-0.2	3.9	-9.5	2.1	i	nt	0.68
CCC1=C(OC(=O)N(CC)CC)N2C(=O)OC(=NCC3CC3)[C@]2(Cc2ccccc2)[C@H]2C1=CC[C@H]1C(=O)N(CC(=O)OC)C(=O)[C@H]12	-1.5	-0.7	5.5	nt	i	15%	nt
Cc1ccc(NC2CCCN(C(=O)c3cc(C(C)C)nn3C)C2)cc1C (stereo not drawn)	nt	nt	3.0	0.7	i	1%	nt
Cc1cccc([C@@H]2[C@@H]3C(=O)N(Cc4ccccc4)C(=O)[C@@H]3[C@]3(Cc4ccccc4)C(=O)N(c4ccc(C(F)(F)F)cc4)C(=O)N23)c1	1.3	0.0	14	-5.9	i	nt	nt

(listing goes on)
compound	RanGTP-Impb inh	UCH37 inh	MLL AF4-AF9 inh	HNF4A DNA FP	FGF22 binding	Vif TR-FRET	E coli growth
CC(=O)c1cnc(-c2cccc(Cl)c2)s1	-5.5	2.7	-0.4	-0.3	i	-2%	0.63
CCOc1ccc(NC(=O)CN(C)C(=O)c2c(-c3c(F)cccc3Cl)noc2C)cc1OCC	3.3	1.5	-8.6	-0.4	i	0%	0.64
O=C(Nc1ccc(S(=O)(=O)NC2=NCCCCC2)cc1)c1cccc(S(=O)(=O)N2CCOCC2)c1	nt	-0.7	-1.8	-20	i	1%	0.72
O=C(c1cnccn1)N1CCc2ccccc2C1	?	2.5	-2.1	-2.3	i	-6%	0.71
Cc1cccc(CNS(=O)(=O)c2ccc(-c3cnc(C4CC4)o3)cc2)c1	2.0	1.4	1.3	6.9	i	1%	0.69
N=c1c(C(=O)NCCN2CCOCC2)cc2c(=O)n3ccccc3nc2n1CCCN1CCOCC1	145*	nt	0.0	-2.6	i	nt	nt
CC(C)c1ccccc1OCC(=O)NN1C(=O)c2ccccc2C1=O	0.9	0.6	-4.4	-1.5	i	-1%	0.7
CCCc1cc(NCCCN2CCOCC2)n2c(nc3ccccc32)c1C#N	13	-345	nt	-0.3	nt	-54%	0.69
CC(=O)Nc1ccc(NC(=O)C(Cc2ccccc2)NC(=O)C2CCC(C)CC2)cc1 (stereo not drawn)	5.1	2.1	nt	-0.3	nt	-1%	0.7
COCCn1cc(C(=O)c2cc(Br)ccc2O)cc(C#N)c1=O	1.5	5.7	-0.6	9.0	i	-2%	0.7
O=[N+]([O-])c1cc(S(=O)(=O)Nc2ccccc2)ccc1N1CCN(c2ccc(O)cc2)CC1	?	7.5	8.0	-0.3	i	9%	0.66
O=[N+]([O-])/C=C/c1ccc2c(ccn2Cc2ccccc2)c1	2.8	nt	-1.9	-5.7	i	nt	nt
O=[N+]([O-])c1ccc(/C=N/NS(=O)(=O)c2ccc(Cl)cc2)o1	nt	nt	-5.9	6.5	i	-1%	nt
COc1ccc(CC(=O)Nc2ccccc2C(=O)NCCc2ccccc2)cc1	11	6.3	-3.3	2.5	i	nt	0.72
CC(C)COc1ccc(C2NC(=O)NC2=O)cc1 (stereo not drawn)	-0.3	1.6	nt	-2.0	nt	-2%	0.63
CCCC(=O)Nc1ccccc1-c1nnc(SCC)[nH]c1=O	-0.3	2.0	15	-2.5	i	-5%	0.7
CN(C)S(=O)(=O)c1cccc(NC(=O)c2cc([N+](=O)[O-])ccc2N2CCCCC2)c1	nt	3.1	6.7	3.4	i	4%	0.68
COC(=O)C[C@H]1C[C@@H]2c3cc(NC(=O)NC4CCCC4)ccc3O[C@@H]2[C@@H](CO)O1	nt	nt	-0.2&-4.3	0.9	i	nt	nt
CC1CCN(C(=O)c2ccc(S(=O)(=O)Cc3cccc(F)c3)c([N+](=O)[O-])c2)CC1	0.5	2.6	nt	1.2	nt	nt	0.73
O=C(Nc1cccc(/C=C/c2ccccn2)c1)c1ccc(-n2cncn2)c([N+](=O)[O-])c1	-3.5	5.9	3.7	1.7	i	4%	0.67
O=C(NCc1ccc(Cl)cc1)C1CCN(C(=O)c2ccco2)CC1	-2.9	0.9	-3.1	-0.6	i	nt	0.59
O=C(C1CCN(C2CC(=O)N(c3cccc(Cl)c3)C2=O)CC1)N1CCCCCC1 (stereo not drawn)	?	5.0	nt	0.9	nt	1%	0.74
COc1ccc(N(C(=O)c2cc3ccccc3oc2=O)C2C=CS(=O)(=O)C2)cc1 (stereo not drawn)	3.8	8.4	2.0	-4.9	i	-3%	0.68
CNc1oc(-c2ccccc2F)nc1S(=O)(=O)c1ccc(C)cc1	1.9	-3.5	0.7	-0.8	i	0%	0.67
CC(=O)c1ccc(OCc2nnn(CC(=O)NS(=O)(=O)c3ccc(C)cc3)c2-c2ccccc2)cc1	nt	nt	-0.8	-0.2	i	nt	nt

Additional entries follow.
compound	RanGTP-Impb inh	UCH37 inh	MLL AF4-AF9 inh	HNF4A DNA FP	FGF22 binding	Vif TR-FRET	E coli growth
Cc1cc(N2CCN(c3ccccn3)CC2)n2c(nc3ccccc32)c1C#N	?	-78	nt	-0.5	nt	-5%	0.67
Cc1ccccc1C(=O)O/N=C(\N)c1ccncc1	1.3	nt	-0.9	-0.6	i	?	nt
CCOC(=O)c1cc(=O)n(-c2ccc(Cl)cc2C)[nH]1	-4.2	7.6	-2.7	-1.3	i	-4%	0.68
CCCNc1c(NS(=O)(=O)c2ccc3c(c2)CCCC3)c(=O)oc2ccccc12	-2.6	-13	nt	-5.2	nt	-1%	0.62
Cc1c(Cc2ccccc2)c(=O)oc2cc(OCc3nn[nH]n3)ccc12	1.0	-213	nt	0.5	nt	10%	0.71
COc1ccccc1OCCNC(=O)C(CCSC)NC(=O)c1ccccc1Cl (stereo not drawn)	2.4	2.3	-11	2.6	i	15%	0.7
COc1cccc(/C=C/C(=O)N(C)CC(=O)Nc2ccc(Cl)c(C(F)(F)F)c2)c1	1.6	0.9	-1.0	4.1	i	-1%	0.65
COc1ccccc1C(=O)NCCNc1nc2cc(C)cc(C)c2cc1C#N	19*	-49	-0.7	-1.5	i	-7%	0.67
CCNC(=S)NNC(=O)c1cc(C2CC2)nc2ccccc12	0.6	1.0	nt	-1.8	nt	4%	0.66
N#Cc1ccc(OCC(=O)Nc2cc(S(=O)(=O)N3CCCCC3)ccc2N2CCCCC2)cc1	3.1	1.4	nt	2.7	nt	17%	0.67
COc1ccc(OCc2cc(C(=O)N(C)Cc3cnccn3)no2)c(Cl)c1	-1.6	1.6	-8.4	3.2	i	-1%	0.69
N#Cc1ccc(CSc2nnc(-c3ccncc3)n2CCc2ccccc2)cc1	-1.9	-0.6	nt	-3.3	nt	-3%	0.72
CCCC(C(=O)NC1CCCC1)N(C(=O)Cn1nnc(-c2ccc(C)o2)n1)C1CCCC1 (stereo not drawn)	0.8	0.8	7.8	2.4	i	6%	0.77
COc1ccc(N2CCN(CC(=O)NCc3ccccc3)CC2)cc1	5.3	2.0	1.7	0.1	i	-5%	0.62

Bioassay records deposited in PubChem by several laboratories.
